Rango complex inh = qHTS Assay for Inhibitors of Rango (Ran-regulated importin-beta cargo) - Importin beta complex formation; Importin subunit beta-1 (Homo sapiens), Q14974; Rango CFP/YFP FRET sensor + importin beta, 45 min; Potency, µM (doses to about 92.2 µM), for the others: at the highest dose inhibition of complex formation; AID 540263, 2011; 0.031% of 340,000 active; active = rising FRET ratio curve, often small or poorly fitted; inconclusive = mostly compound fluorescence or quenching in the first reads; inactive = flat curves in all reads;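 further: potency means the concentration at half of the fitted maximal effect; 0% = DMSO wells and 100% = buffer wells lacking importin beta; nearly all actives have a fitted effect of over 15% in size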
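FRET biosensor Rango (snurportin 1 IBB between N-terminal EYFP and C-terminal Cerulean), 50 nM in PBS/1 mM DTT/0.02% Tween-20/0.1% BSA, preincubated 5 min RT with compound; 0.125 microM importin beta added, 45 min RT, CFP/YFP FRET ratio read.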
miR-21 FLuc = qHTS Assay for Modulators of miRNAs and/orActivators of miR-21; HeLa miR-21 FLuc reporter, luciferase, 48 h; Potency, µM (series often up to 38.3 µM), for inactives: at the highest dose reporter change, positive = more light; 340,000 tested, under 10 active; AID 2288, 2010; active = well fitted rising curve with a large enough effect; inconclusive = small, poorly fitted or top-dose-only effect; inactive = no such curve, though single readings can be large or run the other way;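 further: % of control where 0% means no effect; miR-21 action dims this reporter so a rising signal means less miR-21 action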
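HeLa cells endogenously expressing miR-21, stably carrying CMV-driven firefly luciferase with a downstream miR-21 binding site, 2000 cells/well. Titrations up to approximately 40 uM, 48 hours; luciferase luminescence read.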
Rango release inh = qHTS Assay for Inhibitors of RanGTP induced Rango (Ran-regulated importin-beta cargo) - Importin beta complex dissociation. Potency, µM (titrated, usually from 46.1 µM), for inactives: top-dose activity change, negative = inhibition. Biochemical FRET Rango-importin beta, RanGTP-induced dissociation. 0.071% of 340,000 active; active means falling FRET ratio curve, often poorly fitted, with flat reads before Ran was added; inconclusive means other falling curves, or compound fluorescence or quenching; inactive means flat or rising ratio curve;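 further: potency means the concentration at half of the fitted maximal effect; % of control where 0% means no effect; nearly all actives have a fitted effect of over 45% in size; -100% = wells without RanGTP and RCC1; the record marks most hits as doubtful in a second field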
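Rango (0.1 uM)–importin beta (0.25 uM) complex; RanGTP-RCC1 trigger; 45 min RT; CFP/YFP FRET read.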
GLA inh pH 4.5 = qHTS Assay for Inhibitors of Human alpha-Galactosidase at pH 4.5; Alpha-galactosidase A (Homo sapiens), P06280; purified enzyme, 4-MU-alpha-Gal fluorescence, pH 4.5; activity change, negative = inhibition, % at 105 µM; 230,000 tested, under 10 active; AID 1467, 2008; inconclusive = small, poorly fitted or top-dose-only inhibition, or a rising curve; inactive = flat fitted curve, though single readings scatter; no compound was filed as active;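 further: 0% = full activity with enzyme and -100% = basal without enzyme; dose as in the result columns while the protocol names 77 µM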
Target sequence (P06280 whole entry, looked up): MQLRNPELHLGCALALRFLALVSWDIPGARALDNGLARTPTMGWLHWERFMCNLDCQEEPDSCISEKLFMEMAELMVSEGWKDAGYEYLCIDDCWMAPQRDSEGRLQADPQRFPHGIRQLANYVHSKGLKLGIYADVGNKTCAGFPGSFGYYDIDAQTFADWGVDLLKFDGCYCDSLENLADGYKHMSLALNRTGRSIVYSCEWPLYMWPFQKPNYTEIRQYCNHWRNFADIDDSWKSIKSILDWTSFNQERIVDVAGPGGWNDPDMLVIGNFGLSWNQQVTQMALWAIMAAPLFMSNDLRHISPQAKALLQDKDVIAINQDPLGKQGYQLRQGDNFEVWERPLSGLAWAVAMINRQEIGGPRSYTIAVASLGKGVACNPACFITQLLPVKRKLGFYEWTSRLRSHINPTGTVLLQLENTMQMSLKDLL
The depositor's hits bear a star; u = inconclusive; x = not tested or not shown. An excerpt; the hit share may differ from the screen's.

GLA inh pH 4.5	miR-21 FLuc	SMILES	Rango complex inh	Rango release inh
x	7%	CCc1ccc(NC(=O)c2cc(S(=O)(=O)N3CCc4ccccc43)cn2C)cc1	0.0%	1%
-2	7%	CCCCCCCCOC(=O)C1=C(C)Nc2nnnn2C1c1cccs1 (configuration not stated)	-6.0%	0%
0	0%	CSCCCNC(=O)c1ccc(OC2CCN(C(=O)c3cccnc3)CC2)cc1	3.3%	-29%
-8	-10%	Cc1ccc(OCCCCN2CCC(C)CC2)c(Br)c1	-0.8%	4%
x	x	O=C(c1ccc(NS(=O)(=O)c2ccc(F)cc2)cc1)N1CCC1	0.0%	11%
1	-1%	CCC(C)NC(=O)c1ccc(CS(=O)(=O)c2ccc(OC)cc2)o1 (configuration not stated)	-2.8%	16%
x	x	COc1cc(C(=O)NCC(=O)OCC(=O)Nc2nnc(-c3ccccc3)o2)cc(OC)c1OC	4.7%	-15%
x	x	O=C(CCC(=O)N1CCN(c2cccc(Cl)c2)CC1)c1cccs1	-3.4%	15%
7	-3%	CS(=O)(=O)N(CCc1ccccc1)CC(=O)NCC1CCCO1 (configuration not stated)	4.0%	0%
x	u	O=C1C=CC(=O)N1Cc1ccccc1	-3.1%	-9%
-4	-2%	O=C(CSc1ccc2nnc(-c3ccncc3)n2n1)NCc1ccco1	-2.6%	24%
2	-2%	Cc1ccc(NC(=O)COC(=O)C2CC(=O)N(Cc3ccccc3)C2)cc1S(=O)(=O)N(C)C (configuration not stated)	-2.3%	4%
4	1%	C/C(=N\NC(=O)c1nc2ccccn2c1C)c1cc2ccccc2o1	u	-3%
x	x	COc1cc(C(=O)NNC(=O)CN2C(=O)NC3(CCCC3)C2=O)cc(OC)c1OC	2.5%	1%
1	-4%	CN(CCC#N)C(=O)c1ccc(CNS(=O)(=O)c2ccc(F)cc2)cc1	-1.3%	-8%
x	2%	CC(C)(C)OC(=O)N1CCC(C(=O)NNC(=O)c2ccc(Cl)cc2Cl)CC1	0.3%	11%
-2	0%	Cn1c(N)c(C(=O)COC(=O)CCc2ccccc2)c(=O)n(C)c1=O	0.0%	1%
x	x	Cc1cccc(C2=NOC(=O)/C2=C\c2ccccc2F)c1	-2.4%	0%
x	x	O=C(NCC1CCCO1)c1ccccc1OCc1ccc(F)cc1 (configuration not stated)	2.5%	19%
x	7%	COc1ccc(S(=O)(=O)NC(C)C(=O)NCc2ccco2)cc1OC (configuration not stated)	-0.4%	-2%
x	-5%	CC(NC(=O)CCNC(=O)c1ccccc1Cl)c1ccc(-n2ccnc2)cc1 (configuration not stated)	-0.4%	-13%
x	5%	CCc1ccc(NC(=O)Cn2nnc(C(=O)NCCc3ccc(OC)c(OC)c3)c2N)cc1	1.5%	-1%
x	x	CC1(C)C=Cc2c(ccc3c2OC[C@@H](c2ccc(O)cc2O)C3)O1	0.8%	4%
x	x	COc1ccc(C2c3c(oc4ccccc4c3=O)C(=O)N2CCCN2CCOCC2)cc1 (configuration not stated)	-1.7%	-2%
1	0%	CCOc1cc(/C=C2/C(=O)ON=C2C)ccc1OCc1ccc(F)cc1	0.5%	4%
-14	2%	COc1cc(NC(=O)c2cc([N+](=O)[O-])ccc2Br)ccc1NC(=O)c1ccco1	-2.2%	22%
x	-1%	O=c1[nH]c(C2CCN(S(=O)(=O)c3ccccc3F)CC2)nc2c1nnn2Cc1ccc(OC(F)(F)F)cc1	1.9%	-16%
11	27%	Cc1ccc(CSc2nccc(-c3c(C)nc4ccccn34)n2)cc1	0.5%	0%
-17	-9%	CCNc1cc(S(=O)(=O)C(F)(F)F)ccc1N	2.6%	2%
x	x	Cc1ccc(S(=O)(=O)Oc2cccc([N+](=O)[O-])c2)cc1	-3.3%	-13%
x	0%	CCOc1ccccc1N1CCN(CC(=O)Nc2nc(C)c(C(=O)N(C)C)s2)CC1	-0.3%	-10%
x	-23%	COc1ccc2c(c1)CC(C(=O)Nc1ccc(Cl)cc1)/C(=N/O)O2 (configuration not stated)	-3.0%	-3%
-4	-34%	O=C(CSc1ccccc1)N1CCN(c2ccccn2)CC1	-1.9%	3%
-4	-60%	N#Cc1ccc(/C=N/NC(=O)c2ccccc2F)cc1	-3.9%	12%
4	10%	O=C(CNC(=S)N(Cc1ccc(F)cc1)C1CCCCC1)NCC1CCCO1 (configuration not stated)	-0.2%	-3%
-2	-40%	Cc1nc2ccc(NC(=S)NC3CC3)cc2nc1C	-1.9%	0%
12	-9%	Cc1cc(C)n2cc(CSc3nnnn3-c3ccccc3)nc2n1	0.7%	-9%
1	-8%	O=C(Nc1nnc(SCc2ccc(F)cc2)s1)c1cccnc1Cl	-1.3%	-1%
x	x	CC1C(C)N(C(=O)CCl)c2ccccc2N1C(=O)CCl (configuration not stated)	2.5%	-13%
9	-3%	CSCC[C@H](NC(=O)C1CCN(S(=O)(=O)c2ccc(C)cc2)CC1)C(=O)NC1CCS(=O)(=O)C1 (some centres not stated)	9.6%	9%
2	-6%	COc1ccccc1C1C(C(=O)c2cc3ccccc3o2)=C(O)C(=O)N1CCN1CCOCC1 (configuration not stated)	u	-29%
x	x	CC1(C)OC2OC(C3COC(=O)O3)C(OC(=O)c3ccccc3)C2O1 (configuration not stated)	3.8%	-2%
-12	15%	O=C1c2ccccc2NC(c2ccc(-c3cccc([N+](=O)[O-])c3)o2)N1O (configuration not stated)	0.4%	-1%
3	-4%	O=C(Nc1ccc(F)cc1F)c1cccn1-c1ncc(C(F)(F)F)cc1Cl	-4.8%	2%
x	x	CCCCCCCCCCCCCCCC[N+](C)(C)CCl	28%	-14%
20	-1%	Cc1cccn2c(=O)c(/C=C(\C#N)C(=O)NCc3ccccc3)c(N3CCC(C(N)=O)CC3)nc12	u	u
6	5%	O=C(CN1C(=O)C2C3C=CC(C3)C2C1=O)NCc1ccco1 (configuration not stated)	0.0%	-13%
x	x	COc1ccc2[nH]c3c(c2c1)CCN1C(=O)C(CC(=O)NCCN2CCOCC2)C[C@H](C(=O)N2CCCCC2)[C@@]31CCc1ccccc1 (some centres not stated)	-0.7%	15%
-9	-42%	CC(=O)Nc1sc(N/N=C/c2ccc(N(C)C)cc2)nc1-c1ccc(C)cc1	-1.1%	-15%
-1	-12%	COc1ccccc1CNC(=O)C1=C(C)C(=O)OC12CCC(C)CC2 (configuration not stated)	-0.6%	6%

Among those listed so far, 5 contain an aryl thioether with sulfur outside any ring:
GLA inh pH 4.5	miR-21 FLuc	SMILES	Rango complex inh	Rango release inh
-4	-2%	O=C(CSc1ccc2nnc(-c3ccncc3)n2n1)NCc1ccco1	-2.6%	24%
11	27%	Cc1ccc(CSc2nccc(-c3c(C)nc4ccccn34)n2)cc1	0.5%	0%
-4	-34%	O=C(CSc1ccccc1)N1CCN(c2ccccn2)CC1	-1.9%	3%
12	-9%	Cc1cc(C)n2cc(CSc3nnnn3-c3ccccc3)nc2n1	0.7%	-9%
1	-8%	O=C(Nc1nnc(SCc2ccc(F)cc2)s1)c1cccnc1Cl	-1.3%	-1%

(more compounds)
GLA inh pH 4.5	miR-21 FLuc	SMILES	Rango complex inh	Rango release inh
2	-1%	CCOCCCn1c(=N)c(C(=O)NCCN2CCOCC2)cc2c(=O)n3cccc(C)c3nc21	u	u
-5	0%	Cc1ccc(Cl)cc1NC(=O)CCCN1C(=O)c2cccnc2C1=O	0.4%	0%
x	x	COc1cc(NC(=O)C(C)N2CCN(C(=O)C3CC3)CC2)cc(OC)c1 (configuration not stated)	-1.1%	1%
2	-2%	N#CCC1c2ccccc2CCN1C(=O)Nc1ccc(Cl)cc1 (configuration not stated)	-0.2%	-3%
2	4%	COc1cc(OC)cc(C(C(=O)NCc2ccccc2)N(Cc2ccco2)C(=O)c2ccno2)c1 (configuration not stated)	-6.9%	1%
1	1%	COc1ccccc1N/C(=N/S(=O)(=O)c1ccc(C)cc1)c1ccccc1	0.1%	0%
x	4%	O=C1/C(=C\c2cccc(O)c2O)SC(=S)N1Cc1ccccc1	0.0%	8%
x	x	Cc1ccc(CN(C)C(=O)c2cccc(S(=O)(=O)N3CCCC3)c2)cc1	-0.3%	-2%
x	-3%	COc1ccc(C(=O)c2c(C)c(CCC#N)n3ccccc23)c(OC)c1	0.3%	16%
-9	-24%	S=C(NCC1CCCO1)Nc1ccc(Cl)cc1 (configuration not stated)	-1.9%	-23%
-6	26%	COc1ccc(CN(C)CC(=O)Nc2ccccc2-c2ccccc2)c(OC)c1	12%	-18%
3	3%	CCCCCCCCC(=O)N/N=C(\C)c1ccco1	-0.4%	0%
x	-14%	Clc1ccc(/C=N/N2CCN(Cc3ccccc3)CC2)cc1	0.9%	-4%
5	-1%	COc1cccc(NC(=S)NC(C)c2ccc(OC)c(OC)c2)c1 (configuration not stated)	-4.3%	0%
-11	-33%	COc1ccc(CNC(=O)Nc2ccc(C)cc2)cc1	0.7%	1%
-5	12%	Cc1ccc2[nH]c3c(N4CCc5ccccc5C4)ncnc3c2c1	-2.1%	-6%
x	x	O=C(COC(=O)c1cnccn1)NC1CCCc2ccccc21 (configuration not stated)	u	-13%
3	7%	Cn1c(SCC(=O)Nc2cc(=O)n(C)c(=O)n2C)nnc1C12CC3CC(CC(C3)C1)C2	x	x
x	x	Cn1c(=O)[nH]c2c(c1=O)CCO2	3.4%	1%
7	4%	COc1ccccc1OCCC(=O)OCC(=O)Nc1cc(S(=O)(=O)N2CCOCC2)ccc1Cl	-1.8%	16%
-4	-3%	Cc1cc(-c2cccs2)c2c(n1)sc1c(=O)[nH]c(=O)[nH]c12	0.8%	-19%
5	-24%	C(=N\n1cnnc1)/c1ccc(OCc2cccc3ccccc23)cc1	2.6%	-7%
-28	0%	N#Cc1nc(COc2ccccc2Cl)oc1NCc1cccnc1	u	21µM*
x	-7%	COC(=O)c1cc(-c2cccc([N+](=O)[O-])c2)c2c(=O)[nH]c(=O)n(C)c2n1	-2.3%	0%
x	x	Clc1ncccc1OCc1ccccc1	0.0%	-14%

Shown bar-delimited: part of the list above.
molecule | GLA inh pH 4.5 | miR-21 FLuc | Rango complex inh | Rango release inh
N#CCC1c2ccccc2CCN1C(=O)Nc1ccc(Cl)cc1 (configuration not stated) | 2 | -2% | -0.2% | -3%
COc1cc(OC)cc(C(C(=O)NCc2ccccc2)N(Cc2ccco2)C(=O)c2ccno2)c1 (configuration not stated) | 2 | 4% | -6.9% | 1%
COc1ccccc1N/C(=N/S(=O)(=O)c1ccc(C)cc1)c1ccccc1 | 1 | 1% | 0.1% | 0%
O=C1/C(=C\c2cccc(O)c2O)SC(=S)N1Cc1ccccc1 | x | 4% | 0.0% | 8%
Cc1ccc(CN(C)C(=O)c2cccc(S(=O)(=O)N3CCCC3)c2)cc1 | x | x | -0.3% | -2%

(list continues)
GLA inh pH 4.5	miR-21 FLuc	SMILES	Rango complex inh	Rango release inh
-10	-3%	Cc1cn(C(=O)CN2C(=O)c3ccccc3C2=O)c(C)n1	-0.3%	5%
5	-16%	N#Cc1c2n(c(=S)n(-c3ccccn3)c1=O)CCCCC2	0.6%	3%
x	-18%	COC(=O)C(C)Oc1ccc2cc(-c3ccccc3)c(=O)oc2c1 (configuration not stated)	-4.0%	2%
1	2%	COc1cccc2cc(C(=O)C3=C(O)C(=O)N(CCN4CCOCC4)C3c3ccc(Cl)cc3)oc12 (configuration not stated)	-0.6%	1%
